Assay outcomes from PubChem BioAssay.
ALDH1A1 inh: qHTS Assay for Inhibitors of Aldehyde Dehydrogenase 1 (ALDH1A1). Aldehyde dehydrogenase 1A1 (Homo sapiens), P00352. Purified ALDH1A1, NADH fluorescence, propionaldehyde substrate. Potency, µM (highest dose often 75.3 µM), without a hit: at the highest dose activity, negative = inhibition, usual class: inhibitors. 220,000 tested, 7.3% active. AID 1030, 2008; active = well fitted inhibition curve with a large enough effect, not every such curve was filed as active; inconclusive = small, poorly fitted or top-dose-only effect, or another doubt; inactive = no such curve, though single readings can be large or run the other way;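 note: plate controls were no enzyme wells and a reference inhibitor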
Target sequence (P00352 whole entry, looked up): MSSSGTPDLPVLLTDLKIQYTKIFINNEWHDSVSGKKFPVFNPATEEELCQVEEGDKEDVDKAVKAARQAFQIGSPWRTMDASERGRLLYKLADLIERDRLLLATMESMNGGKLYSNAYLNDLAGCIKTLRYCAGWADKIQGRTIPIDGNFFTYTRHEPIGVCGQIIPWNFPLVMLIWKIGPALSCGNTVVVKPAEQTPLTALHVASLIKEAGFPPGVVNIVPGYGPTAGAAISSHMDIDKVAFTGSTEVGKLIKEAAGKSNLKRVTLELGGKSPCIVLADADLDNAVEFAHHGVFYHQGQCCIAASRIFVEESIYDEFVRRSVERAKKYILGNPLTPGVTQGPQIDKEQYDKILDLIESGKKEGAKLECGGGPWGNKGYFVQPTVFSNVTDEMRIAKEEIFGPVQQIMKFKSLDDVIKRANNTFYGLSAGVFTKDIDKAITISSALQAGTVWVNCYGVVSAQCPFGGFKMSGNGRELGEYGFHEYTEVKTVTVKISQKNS
GAA spleen mod: qHTS Assay for Inhibitors and Activators of Human alpha-Glucosidase From Spleen Homogenate; human spleen homogenate, 4-MU-alpha-glucoside fluorescence; AID 2112, 2009; 240,000 tested, 0.006% active; Lysosomal alpha-glucosidase (Homo sapiens), P10253; Potency, µM (top dose mostly 79.9 µM), inactives show at the highest dose activity change, negative = inhibition, usual class: inhibitors;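 note: 0% = enzyme with vehicle and -100% = no enzyme basal signal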
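Compounds were titrated against alpha-glucosidase in spleen homogenate at pH 5.0, with 1 mM 4-methylumbelliferyl substrate for 40 min at 37 C. Reactions were quenched with pH 10 NaOH/glycine and fluorescence measured.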
Epigenetic derep: Quantitative High-Throughput Screen for Regulators of Epigenetic Control | murine LDR cells, GFP reporter derepression, 30 h | Potency, µM (top dose mostly 53.9 µM), for the others: at the highest dose GFP activation, actives largely listed as activators | 280,000 tested, 0.2% active | AID 1865, 2009; note: % of control where 0% means no effect; nearly all actives have a fitted effect of over 60% in size
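Readout is the number of GFP-expressing murine LDR cells, counted by cytometry following washing. Cells were treated with compound for 30 h at 37 C; the stably integrated CMV-GFP locus is normally silent.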
GAA inh: qHTS Assay for Inhibitors of Human alpha-Glucosidase as a Potential Chaperone Treatment of Pompe Disease; Lysosomal alpha-glucosidase (Homo sapiens), P10253; purified human GAA, 4-MU-alpha-glucoside fluorescence; Potency, µM (highest dose often 76.9 µM), for inactives: top-dose activity change, negative = inhibition, most hits filed as inhibitors; 200,000 tested, 0.005% active;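 note: plate controls were uninhibited enzyme wells for no effect and no-enzyme background for full effect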
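Fluorogenic assay: 4 nM human alpha-glucosidase with 400 uM 4-methylumbelliferyl-alpha-D-pyranoside in 50 mM citrate/phosphate, 0.005% Tween-20, pH 5.0, 20 min at room temperature. Compounds tested up to 77 uM; AC50 from Hill fits.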
aGal spleen mod: qHTS Assay for Inhibitors and Activators of Human alpha-Galactosidase From Spleen Homogenate | Alpha-galactosidase A (Homo sapiens), P06280 | human spleen homogenate, 4MU-alpha-Gal fluorescence, 40 min | Potency, µM (doses to about 80 µM), inactives show at the top dose activity change, negative = inhibition, hits mostly inhibitors | 240,000 tested, 0.008% active | AID 2107, 2009;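 note: 0% = enzyme with vehicle and -100% = no enzyme basal signal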
Target sequence (P06280 32-429 limits assumed): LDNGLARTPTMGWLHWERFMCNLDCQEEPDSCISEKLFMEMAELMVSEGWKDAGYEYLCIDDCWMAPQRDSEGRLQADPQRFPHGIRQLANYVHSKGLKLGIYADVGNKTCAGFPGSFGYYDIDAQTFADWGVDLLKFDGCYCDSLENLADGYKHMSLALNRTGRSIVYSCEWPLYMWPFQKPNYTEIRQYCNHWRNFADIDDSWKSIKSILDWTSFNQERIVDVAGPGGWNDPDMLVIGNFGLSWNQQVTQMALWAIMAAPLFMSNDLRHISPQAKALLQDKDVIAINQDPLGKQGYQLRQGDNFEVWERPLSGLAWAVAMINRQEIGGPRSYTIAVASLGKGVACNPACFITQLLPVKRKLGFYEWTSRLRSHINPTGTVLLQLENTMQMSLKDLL
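Inhibition or activation of alpha-galactosidase in human spleen homogenate is scored by 4-MU fluorescence after 40 min at 37C, pH 5.0, with 1 mM substrate. AC50s come from concentration-response fitted to the Hill equation.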
Tau fluor cs: Counterscreen qHTS for Inhibitors of Tau Fibril Formation, Fluorescence Polarization | Potency, µM (top dose mostly 57.7 µM), without a hit: top-dose activity change, negative = decrease | 280,000 tested, 0.93% active | tau K18 P301L Alexa594 fluorescence, heparin fibrillization; note: % is set by controls: 0 for no effect and ±100 for the full control effect; nearly all actives have a fitted effect of over 55% in size
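Human tau K18 P301L (15 uM unlabeled, 0.24 uM Alexa 594-labeled) in 100 mM sodium acetate pH 7 with 20 uM heparin, 6 hr at 37 C. ThT 30 uM added, 1 hr ambient; Alexa 594 FP and total fluorescence read at 555/632 nm.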
GAA glycogen: qHTS Assay for Inhibitors and Activators of Human alpha-Glucosidase Cleavage of Glycogen | Lysosomal alpha-glucosidase (Homo sapiens), P10253 | recombinant GAA, glycogen substrate, Amplex Red glucose oxidase fluorescence | Potency, µM (top dose mostly 76.4 µM), for the others: at the highest dose activity change, negative = inhibition, usual class: inhibitors | 300,000 tested, 0.38% active | AID 2100, 2009;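 note: 0% = full enzyme reaction and -100% = no-enzyme basal signal; the screen sought inhibitors and activators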
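qHTS, 1536-well; enzyme 4 nM final; cpd up to 77 uM; substrate bovine liver glycogen 30 ug; 50 mM citrate/phosphate pH 5.0, 0.01% Tween-20; 37 C, 40 min; Amplex Red detection 45 min RT; Hill fit → AC50.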
Numbers without * were called inactive; ? = inconclusive; nt = not tested or not shown; [ ] = dose if it differs, or a comment. Unless noted, calls come from the whole dose curve; as a rule, active = well fitted curve in the direction sought with a large enough effect; inconclusive = small, poorly fitted or top-dose-only effect, or another doubt; inactive = no such curve, though single readings can be large; an effect the other way counts as inactive or inconclusive. Potency is the fitted concentration of half-maximal effect.

smiles | ALDH1A1 inh | GAA spleen mod | Epigenetic derep | GAA inh | aGal spleen mod | Tau fluor cs | GAA glycogen
O=C(Nc1nc(-c2ccccc2)cs1)C1CCCCN1S(=O)(=O)c1ccc(Cl)cc1 (stereo unspecified) | 0.1% | -0.8% | 0.8% | -18.2% | 7.2% | -26.0% | -9.6%
CCOC(=O)Cn1c2c(c(=N)c3ccccc31)CCC2 | -4.0% | -3.4% | 0.0% | 2.9% | 2.6% | -2.3% | -5.1%
CCCC(=O)NC(=S)Nc1cccc(NC(=O)c2ccc(Cl)cc2Cl)c1 | -1.8% | 1.4% | 1.0% | -3.6% | 11.1% | -15.2% | 6.3%
O=C(Cn1c(N2CCN(C/C=C/c3ccccc3)CC2)nc2ccccc21)c1ccccc1 | 3.1% | -5.9% | -0.1% | -2.0% | 0.2% | 7.0% | -4.9%
Oc1ccccc1C(=S)N1CCCCC1 | ? | -14.8% | -0.5% | ? | 0.2% | -2.4% | -0.8%
CCOC(=O)CC(=O)CSc1nc2ccc(OC)cc2cc1C | -4.0% | 1.5% | -3.8% | 7.8% | -2.8% | -8.1% | 11.8%
N#Cc1c(NC(=S)NC(=O)C2CCCC2)sc2c1CCCCC2 | 10µM* | -1.3% | -0.9% | 4.1% | 1.4% | -10.3% | -8.1%
CCCSc1nc(N2CCCC2)c2c(c1C#N)CC(C)(C)OC2 | ? | 2.5% | -1.6% | -6.1% | -16.2% | -4.9% | 3.6%
CCCCn1c(SCC(=O)Nc2cc(C)on2)nc2ccccc2c1=O | ? | -2.3% | -4.9% | 7.3% | 6.3% | -1.8% | -3.9%
COc1ccc(Br)cc1/C=N/NC(=O)c1nc(-c2ccccc2)n2c1CCCCC2 | -3.4% | -10.9% | -0.7% | -15.6% | 2.0% | -11.6% | -2.0%
CC1=CC(C)(C)N(C(=O)c2ccccc2)c2ccccc21 | -15.2% | 2.5% | -0.9% | -10.5% | -7.8% | 1.9% | 6.9%
CC1(C)Cc2c(sc3c2c(N)nc(=S)n3Cc2ccccc2)CO1 | ? | -9.2% | -0.1% | 9.9% | 3.7% | -10.2% | 7.9%
COc1ccc(C(C#N)Nc2ccc(C)cc2)cc1 (stereo unspecified) | ? | -4.0% | 1.8% | -4.1% | -3.2% | -3.4% | -5.2%
CCOC(=O)C1Cn2c(nc3c(c2=O)C2(CCCC2)Cc2ccccc2-3)S1 (stereo unspecified) | ? | 0.3% | -2.8% | ? | 4.6% | -28.7% | -0.9%
COc1ccc2cc(CCN3C(=O)c4ccccc4C3=O)c(=O)[nH]c2c1 | ? | 5.6% | -2.4% | 1.6% | 8.1% | -4.6% | -3.0%
COc1ccc(/C=C/C(=O)Nc2sc3c(c2C(=O)NCc2cccnc2)CCCC3)cc1 | 3.98µM* | -5.1% | 4.3% | -10.7% | -12.7% | -24.3% | 8.7%
O=S(=O)(NCC(c1cccnc1)N1CCN(Cc2ccccc2)CC1)c1ccccc1 (stereo unspecified) | -8.2% | -15.8% | -1.0% | -1.8% | -2.1% | -1.0% | 1.2%
O=C(O)C1c2ccccc2C(=O)N(Cc2ccc(F)cc2)C1c1ccncc1 (stereo unspecified) | nt | 0.7% | -0.3% | nt | 4.8% | -4.3% | 1.5%
CC1C/C(=N\NC(N)=S)c2cc(Cl)ccc2S1 (stereo unspecified) | nt | 1.7% | 1.0% | nt | -1.7% | -16.1% | 3.9%
C=CCOC(=O)C1=C(C)NC(SCC(=O)Nc2ccccc2)=C(C#N)C1c1ccco1 (stereo unspecified) | ? | -8.8% | 0.0% | -4.1% | 8.2% | -2.3% | ?
COc1cccc(Nc2nc3ccccc3nc2-n2nc(C)cc2C)c1 | ? | -1.8% | 2.7% | 8.1%[15.4 µM] | 0.0% | ? | 6.7%
c1coc(-c2nnc(SCc3nc4ccccc4[nH]3)o2)c1 | 3.5% | -3.3% | -1.2% | -1.4% | -5.1% | -4.4% | -3.2%
O=S(=O)(/N=C(/Nc1cccc2ccccc12)c1ccccc1)c1cccs1 | ? | -2.2% | 1.1% | -5.0% | 3.5% | 0.1% | -6.3%
C=CCN(CC=C)C(=O)Nc1ccc2nc(C)sc2c1 | -1.6% | 4.7% | -4.8% | 4.9% | -3.2% | 0.0% | -7.4%
CCN(CC)C(=O)COC(=O)c1cc(-c2ccc(OC)cc2)nc2ccccc12 | ? | 5.2% | 0.6% | 8.1% | 14.8% | ? | -0.6%
Cc1nc(SCC(=O)NC(=O)NCCC(C)C)c2c(-c3cccs3)csc2n1 | ? | -4.8% | 2.0% | -1.6% | -5.7% | 2.0% | 9.1%
C/C(=N\NC(=O)c1ccc(NS(=O)(=O)c2cccs2)cc1)c1ccccc1 | -12.8% | -6.4% | 1.0% | -2.4% | -3.4% | -8.5% | 8.5%
Fc1ccc(-c2cc(C(F)(F)F)nc(NCC3CCCO3)n2)cc1 (stereo unspecified) | ? | -8.8% | -0.9% | -9.3% | 3.1% | -16.9% | -8.3%
Cc1ccc(-c2nnn(C(C)C(=O)N3c4ccccc4CCc4ccccc43)n2)cc1 (stereo unspecified) | -3.3% | 2.4% | 0.0% | -2.5% | 5.2% | -13.3% | -11.8%
Cc1ccc2nc(-c3ccc(NC(=S)NC(=O)C(C)C)cc3)sc2c1 | ? | -2.9% | -0.9% | 2.5% | 5.7% | -22.2% | -2.9%
COC(=O)c1cccc(S(=O)(=O)N2CCC(NC(=O)Nc3cccc(F)c3)CC2)c1 | 7.4% | -5.2% | 4.1% | -7.1% | -0.1% | -20.6% | -2.4%
O=C(Nc1ccc(C(F)(F)F)cc1)N1CCN(c2ccnc3cc(Cl)ccc23)CC1 | nt | 5.1% | -5.7% | nt | 12.5% | ? | -4.8%
COCCCn1c(=N)c(C(=O)NCc2ccc3c(c2)OCO3)cc2c(=O)n3ccccc3nc21 | ? | 0.2% | 0.7% | -0.2% | 7.4% | -3.5% | 9.8%
CCOc1ccc2c(c1)/C(=C(\C(Cl)=C(Cl)Cl)[N+](=O)[O-])N2 | ? | 0.1% | 0.1% | 7.7% | 21.3% | -11.5% | 3.4%
COc1ccc(C2C(C(=O)OCC3CCCO3)=C(C)NC3=C2C(=O)CC(c2ccco2)C3)cc1O (stereo unspecified) | 0.2% | 1.6% | -2.3% | -9.8% | 9.6% | -13.3% | ?
CCOc1cc(S(=O)(=O)NCc2ccc3c(c2)OCO3)c(C)cc1C | -6.6% | 8.2% | 1.1% | -8.5% | 2.4% | -23.1% | -5.2%
CC1(C)C=C2[C@H]3CC[C@@H]4[C@@]5(C)CCC(=O)C(C)(C)[C@@H]5CC[C@@]4(C)[C@]3(C)CC[C@@]2(C(=O)O)CC1 | -2.2% | -1.8% | -0.3% | 2.5%[15.4 µM] | -5.1% | -6.8% | 10.0%
C[C@@]12C[C@@H](O)[C@H]3[C@@H](CCC4=CC(=O)CC[C@]43C)[C@H]1CC[C@H]2C(=O)CO | -2.0%[20.9 µM] | 4.9%[29.1 µM] | -0.3%[16.9 µM] | nt | -19.3%[29.1 µM] | nt | nt
COc1ccccc1N1C(=O)C2C(C(=O)c3ccccc3)=NN(c3ccc(Br)cc3)C2C1=O (stereo unspecified) | nt | 8.4% | -4.3% | nt | 0.1% | ? | 9.3%
CN(Cc1ccccc1)C(=O)c1ccc2c(c1)OCCO2 | ? | -1.2% | -0.5% | ? | -4.2% | 6.2% | -4.9%
CCOC(=O)Cn1c(S(=O)(=O)Cc2ccccc2Cl)nc(-c2ccccc2)c1-c1ccccc1 | 4.2% | -8.1% | 7.0% | -6.7% | -0.9% | -18.8% | -13.2%
Cc1ccc(C)c(N2CCN(C(=O)c3ccc(Cn4c(=O)[nH]c5ccccc5c4=O)cc3)CC2)c1 | -6.2% | -0.1% | -1.1% | -1.9% | 6.1% | ? | -8.2%
COc1ccc(Nc2nnc(-c3ccccc3)c3ccccc23)cc1C(=O)N1CCCCC1 | 19.1% | -14.5% | -1.5% | -4.1% | -20.5% | -20.3% | 5.4%
C=CCn1cnc2c(c1=O)c1nc3ccccc3nc1n2/N=C/c1cccc(OC)c1 | 11.2µM* | -11.3% | 1.0% | -9.4% | -13.6% | -16.7% | 5.0%
CCCn1c(=O)c(-c2nc3ccccc3[nH]2)c(O)c2ccccc21 | ? | 0.9% | 0.7% | ? | 4.6% | -3.4% | -1.4%
CCN(CC)C(=O)CSc1nc(-c2cccs2)cc(-c2cccs2)c1C#N | ? | -9.5% | 35.5µM* | -2.0% | -4.4% | -29.1% | -0.8%
COc1ccccc1C(CCN(Cc1ccccc1)C(C)=O)c1ccco1 (stereo unspecified) | nt | -5.1% | 1.1% | -6.6%[15.4 µM] | 8.9% | -8.1% | -9.6%
COCCNC(=S)N/N=C(\C)c1ccc(Cl)c(Cl)c1Cl | 9.5% | 1.1% | ? | 1.9% | -7.1% | -4.4% | -9.2%
COc1cccc(C(C(=O)NC2CCCCC2)N(C(=O)c2ccccn2)c2cccnc2)c1 (stereo unspecified) | -3.1% | -3.5% | 2.0% | -3.5% | -8.3% | -9.8% | 12.3%
COc1cc2c(cc1OC)C(c1ccccc1)N(C(=O)CCl)CC2 (stereo unspecified) | ? | -2.8% | -1.1% | 0.9% | 1.4% | -0.5% | 0.5%
CC(=O)Nc1cccc(/C(C)=N/NC(=O)c2ccc(NS(=O)(=O)c3cccs3)cc2)c1 | nt | 9.0% | 1.2% | nt | 9.5% | -15.5% | -11.8%

A portion of the library; count on the stated rates, not on these rows.
